Yeast UUG start – yeast start codon fidelity modulation | 350,000 compounds, 0.13% hits | activity score, % at 18.7 µM | S. cerevisiae UUG-firefly luciferase reporter, luminescence/redox ratio | AID 602363;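 active means replicate mean at a twofold rise or more, about +100% in these data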;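 further: firefly luciferase made from a UUG start codon reports start codon fidelity; reporter light over untreated wells divided by growth signal over untreated wells; some hits fall short of that in this replicate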
Rce1 inhib – blocks yeast Ras-converting enzyme; Q03530; yeast membranes, quenched prenylated peptide cleavage fluorescence; calls only; 290,000 compounds, 0.27% hits; AID 2563;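 active means fall in fluorescence gain of 50% or more versus controls, with final raw signal at or below 3038400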;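 further: plate controls were neutral control wells for no effect and wells lacking membranes for full effect; tested at 10 µM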
Target sequence (Q03530 whole entry, looked up): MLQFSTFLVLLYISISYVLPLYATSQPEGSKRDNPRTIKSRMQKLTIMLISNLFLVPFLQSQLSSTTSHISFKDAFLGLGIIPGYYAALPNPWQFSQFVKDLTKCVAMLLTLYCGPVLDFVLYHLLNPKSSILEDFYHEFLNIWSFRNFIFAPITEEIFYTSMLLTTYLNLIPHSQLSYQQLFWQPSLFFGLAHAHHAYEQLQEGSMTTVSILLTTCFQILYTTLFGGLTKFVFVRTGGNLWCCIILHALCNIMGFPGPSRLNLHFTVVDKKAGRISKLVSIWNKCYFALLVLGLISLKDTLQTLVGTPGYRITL
eIF4H inh – inhibitors of RNA binding by human eIF4H. inhibition, % at 35 µM. eIF4H fluorescence polarization binding assay. 290,000 compounds, 0.94% hits;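 active means 50% or more with normal probe brightness, or confirmed in later tests; about a fifth of its hits are not listed in these tables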;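 further: calls also rest on retests at 20 µM and on dose response follow-up; 0% = protein and probe with vehicle and 100% = probe without protein; strong numbers were not always called active; many hits fall short of the cut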
HIV Env fusion – HIV envelope-mediated fusion inhibition; HeLa-JRFL Env/CEM21 cell fusion, luciferase; inhibition, % at 12.3 µM; 360,000 compounds, 1.1% hits; AID 651610;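 active means mean replicate inhibition score of at least 50 and every replicate individually at or above 50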;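 further: 0% = plate neutral controls and 100% = maraviroc near 300 nM; one replicate is shown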
MT1-MMP act inh – inhibitors of human MT1-MMP activation. P50281. HT1080 RFP-PRO-GFP cells, GFP/RFP ratio fluorescence, overnight; percent of plate control window, DMSO zero. GFP/RFP ratio change, % at 20 µM. 360,000 compounds, 0.061% hits. AID 651647;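 active means GFP/RFP ratio change of at least 30% with cell ATP level not reduced by more than half and red fluorescence within 50% of control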; further: strong numbers were not always called active
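Assay system: HT1080 RFP-PRO-GFP cells | Dosing: 20 µM single dose, 1% DMSO | Incubation: Cells overnight before dosing, compound overnight, 37 °C, 5% CO2 | Evaluation: GFP/RFP fluorescence ratio | Control set: DMSO-only wells and HT1080 RFP-L50D-GFP cell wells as references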
PABP polyA inh – blocks human PABP binding to poly(A) RNA; 290,000 compounds, 1% hits; P11940; fluorescence polarization; inhibition, % at 35 µM; AID 2014;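 active means 50% or more with normal probe brightness, or confirmed in later tests; about a fifth of its hits are not listed in these tables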;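 further: calls also rest on retests at 20 µM and on dose response follow-up; controls were probe without protein and protein plus probe with vehicle; some compounds called inactive have numbers as strong as hits; many hits fall short of the cut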
CSC inhib – blocks cancer stem cells | cancer stem cell-like cells viability, luminescence | inhibition, % at 7.5 µM | 300,000 compounds, 1.1% hits;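 active means mean at 75% or more and at least half the replicates too; tested in HMLE shEcad cells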;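 further: 0% = median of negative and 100% = median of positive control wells; the first replicate is given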
MT1-MMP act inh RFP – further read-out of MT1-MMP act inh, marked with its call; RFP signal change, %; measured here: RFP expression control read;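 0 = vehicle wells; hits needed this value within 50% of zero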
The depositor's hits bear a star; i = inactive; x = not tested or not shown; & = joins results of further samples.

SMILES | Yeast UUG start | Rce1 inhib | eIF4H inh | HIV Env fusion | MT1-MMP act inh | MT1-MMP act inh RFP | PABP polyA inh | CSC inhib
CC1(C)CC(=O)C=C(c2ccc(OC(F)(F)F)cc2)C1 | -18 | x | x | 9 | -2 | 0 | x | -10
COc1ccc(CC2(CO)CCN(Cc3ccc4nsnc4c3)CC2)cc1 | x | i | 12 | -7 | 0 | -7 | 6 | 10
COc1ccc(NC(=O)CC2C(=O)N(Cc3ccccc3)C(=S)N2CCN2CCOCC2)cc1 (stereo unspecified) | -1 | i | -7 | 8 | 4 | 1 | -4 | 10
O=c1c(C=NCCN2CCNCC2)c(-c2ccccc2)[nH]n1-c1ccc([N+](=O)[O-])cc1 | x | i | -9 | x | x | x | -3 | -1
CC1CN(c2ccc(C(=O)c3ccccc3C(=O)O)cc2[N+](=O)[O-])CC(C)O1 (stereo unspecified) | 17 | x | -10 | 14 | 5 | 2 | 3 | -2
CC(C)CNC(=S)N1CCN(C(c2ccccc2)c2ccccc2)CC1 | x | i | -3 | -34 | -18 | -11 | 4 | 17
CC(C)(C)OC(=O)NCCCCCNC(=O)c1ncn(Cc2ccccc2)c1C(=O)NCCCCCNC(=O)OC(C)(C)C | -15 | x | x | -36 | -6 | -12 | x | 42
COc1ccc(C2=NN(CC(=O)Nc3ccccc3C)C(=O)CC2)cc1 | -9 | i | -1 | -31 | 0 | 4 | -10 | 11
O=C1CCCN1CCCNc1nc(NCc2ccccc2)nc2ccsc12 | -17 | x | x | 21 | -9 | -4 | x | x
O=c1[nH]c2cc3c(cc2cc1CN(CCCO)Cc1nnnn1Cc1ccc(F)cc1)OCO3 | -10 | i | 4 | x | -4 | -3 | -5 | 20
CC(=O)Nc1ccc2nc(-c3ccc(Br)o3)[nH]c2c1 | x | i | 6 | -15 | -2 | 0 | -7 | -3
CCCCCCC12CCC(C(=O)O)(CC1)CC2 | x | i | -5 | x | x | x | 5 | -9
COc1cc(NC(=O)CSc2nc(=O)n(CCCN3CCOCC3)c3c2CCC3)cc(OC)c1 | 6 | i | x | -4 | 6 | 1 | x | 3
CCN(CC)c1ccc(NC(=O)Cn2nnc(-c3cccc(OC)c3OC)n2)c(C)c1 | -4 | i | 9 | -14 | -3 | -2 | 2 | -10
CC1CC(NC(=O)Cc2ccc(Br)cc2)CC(C)(C)C1 (stereo unspecified) | -12 | i | 0 | -20 | -14 | -9 | -6 | -3

Some of the entries above, set out differently.
Order of results: Yeast UUG start, Rce1 inhib, eIF4H inh, HIV Env fusion, MT1-MMP act inh, MT1-MMP act inh RFP, PABP polyA inh, CSC inhib
COc1ccc(NC(=O)CC2C(=O)N(Cc3ccccc3)C(=S)N2CCN2CCOCC2)cc1 (stereo unspecified)
→ -1, i, -7, 8, 4, 1, -4, 10
O=c1c(C=NCCN2CCNCC2)c(-c2ccccc2)[nH]n1-c1ccc([N+](=O)[O-])cc1
→ x, i, -9, x, x, x, -3, -1
CC1CN(c2ccc(C(=O)c3ccccc3C(=O)O)cc2[N+](=O)[O-])CC(C)O1 (stereo unspecified)
→ 17, x, -10, 14, 5, 2, 3, -2
CC(C)CNC(=S)N1CCN(C(c2ccccc2)c2ccccc2)CC1
→ x, i, -3, -34, -18, -11, 4, 17
CC(C)(C)OC(=O)NCCCCCNC(=O)c1ncn(Cc2ccccc2)c1C(=O)NCCCCCNC(=O)OC(C)(C)C
→ -15, x, x, -36, -6, -12, x, 42

Following part.
SMILES | Yeast UUG start | Rce1 inhib | eIF4H inh | HIV Env fusion | MT1-MMP act inh | MT1-MMP act inh RFP | PABP polyA inh | CSC inhib
COc1ccc(-c2csc(C(C)(O)c3ccc(F)c(F)c3)n2)cn1 (stereo unspecified) | -2 | x | x | 6 | 4 | -7 | x | x
C[C@H](CO)N1C[C@H](C)[C@H](CN(C)Cc2ccncc2)Oc2ncc(Br)cc2C1=O | -23&-12&3 | x | x | -9 | 5 | 6 | x | x
Cc1cccc(NC(=O)CNC(=O)c2ccc3c(c2)OCO3)n1 | 0 | i | x | -39 | 0 | -1 | x | x
COc1cc(N(C)C)c([N+](=O)[O-])cc1C(=O)NC(C)CNc1ccc([N+](=O)[O-])cc1Cl (stereo unspecified) | x | i | 7 | x | 8 | -1 | 2 | x
CNC(=O)c1ccccc1NC(=O)c1ccc(C)c(S(=O)(=O)N2CCCCC2)c1 | 6 | i | -3 | -11 | 6 | -2 | 0 | -4
Cc1cc(C)cc(CC(=O)N2CCC2(C)C(=O)NS(=O)(=O)c2ccc(C(C)(C)C)cc2)c1 (stereo unspecified) | -8 | x | x | 16 | 2 | 1 | x | x
CCN(Cc1nc2ccccc2c(=O)[nH]1)Cc1cc(=O)oc2cc(OC)ccc12 | -16 | x | 0 | x | -1 | 1 | 0 | -8
C=CC[C@H](CC(=O)OC(C)(C)C)C(=O)OC[C@@H]1CCCN1C(=O)[C@H](CC=C)CC(=O)N[C@H](CO)Cc1ccccc1 | 34 | x | x | -38 | 10 | -10 | x | 12
C#CCOCCOCCOCCNc1nc(N2CCN(C(=O)CCCCCCCCCCNC(=O)[C@H](CCCCN)n3cc(CCCC(=O)O)nn3)CC2)nc(N2CCN(C(=O)CCCCCCCCCCNC(=O)[C@H](CCCN=C(N)N)n3cc(C[C@@H](C)CC)nn3)CC2)n1 | 10 | i | x | x | 2 | 9 | x | -19
Cn1c(C(=O)NCCN2CCN(Cc3ccccc3)CC2)cc2c(=O)n(C)c3ccccc3c21 | 6 | i | 2 | -15 | 3 | 3 | 10 | 8
CC(C)CNC1=CC(=O)CC(c2ccco2)C1 (stereo unspecified) | -6 | i | 108* | -32 | 9 | 6 | 92* | -8
O=C(COC(=O)C1CCN(S(=O)(=O)c2ccc3c(c2)OCCO3)CC1)NC1CCCCC1 | x | i | x | x | 4 | 1 | x | 0
CC1(Cc2ccc(C(F)(F)F)nc2)C(=O)Nc2cc(-c3ccccc3Cl)ccc21 (stereo unspecified) | -15 | x | x | 70* | -7 | -10 | x | x
CCOCCCNC(=S)N1CCCN(c2nc3cc(C)c(C)cc3cc2C#N)CC1 | x | i | 48 | 33 | -7 | -3 | 13 | 26
C/C(CC(=O)Nc1cccc(F)c1)=N\NC(=O)C(=O)NC1CCCCC1 | x | i | 18 | 19 | 1 | 5 | 0 | -13
COc1ccc(N2C(=O)C(CC(=O)Nc3ccccc3)N(Cc3ccccn3)C2=S)cc1 (stereo unspecified) | -20 | i | -1 | 0 | -4 | 1 | -10 | -3
Cc1nc2scc(-c3ccc(Cl)cc3)c2c(=O)o1 | -1 | i | 8 | -36 | 5 | 1 | 4 | -3
O=C(CN1CCN(Cc2ccc(F)cc2Cl)C1=O)NCCCN1CCOCC1 | -3 | i | 5 | 3 | 0 | 3 | -4 | -1
Cc1ccc(NC(=S)NC(NC(=O)N(C)C)C(Cl)(Cl)Cl)cc1 (stereo unspecified) | -23 | i | -1 | 3 | 3 | 5 | -5 | -8
Cc1ccc(NC(=O)C2C3C=CC4(O3)C2C(=O)N(CCCN2CCCCC2)C4C(=O)NC2CCCCC2)cc1Cl (stereo unspecified) | 5 | x | -10 | 12 | -1 | -1 | -3 | -18
O=C(N/N=C/c1cc(Cl)c(O)c(Cl)c1)c1cc2c(ccc3ccccc32)o1 | -10 | x | 14 | 8 | 1 | -8 | 34 | -4
CC1=C(C(=O)Nc2ccccc2C)C(c2cccnc2)n2nc(CCCO)nc2N1 (stereo unspecified) | -12 | i | -7 | x | 0 | 4 | -2 | 6
O=S(=O)(Nc1ncccn1)c1ccc(NC(=S)N2CCN(Cc3ccc(F)cc3Cl)CC2)cc1 | -15 | i | 2 | x | -2 | -2 | 0 | -12
COc1ccc(-c2cnc3c(NC(C)=O)cc(-c4ccc(C(=O)N5CCOCC5)cc4)cn23)cc1OC | -1 | x | x | 35 | 1 | 5 | x | x
CC(C)C(C)NC(=O)COC(=O)C1CCN(S(=O)(=O)c2ccc3c(c2)OCCO3)CC1 (stereo unspecified) | x | i | x | 0 | 4 | -4 | x | -5
CCc1noc(C)c1C(=O)Nc1cc(S(=O)(=O)N2CCOCC2)ccc1OCC(F)(F)F | -16 | i | x | -33 | 1 | -2 | x | x
COCc1nnc(NC(=O)c2cc(C(=O)OC)cc([N+](=O)[O-])c2)s1 | x | i | -6 | 13 | 1 | 3 | 5 | 21
CC(Cn1cncn1)NC(=O)c1cc(COc2cccc(C(F)(F)F)c2)on1 (stereo unspecified) | -12 | i | -3 | 8 | 1 | -2 | -8 | -6
O=c1oc2c(CN3CCOCC3)c(O)ccc2c2c1CCC2 | 1 | x | 1 | -58 | 3 | 2 | 10 | -22
COc1ccccc1N1CCN(CCC(=O)Nc2cccc(F)c2)CC1 | -8 | x | x | -18 | 0 | 4 | x | x
CCOc1ccc(C(=O)Nc2cccc(-c3ccc4nncn4n3)c2)cc1 | -18 | i | -5 | -10 | 6 | 3 | -8 | -5
Cc1ccc(C(=O)Nc2nccs2)s1 | -4 | i | -11 | -12 | 7 | 1 | -4 | 3
Cc1cc(N/N=C/c2ccccc2F)c2ccccc2n1 | x | i | -1 | 6 | 3 | 1 | 4 | x
CCn1c(=O)n(CC)c2cc(N3CCCC3)c(NC(=O)c3cc(Cl)ccc3OC)cc21 | -7 | i | -12 | 0 | 1 | -4 | 4 | 30
C[C@@H]1CCCCO[C@@H](CN(C)S(=O)(=O)c2ccc(F)cc2)[C@@H](C)CN([C@H](C)CO)C(=O)c2cc(N(C)C)ccc2O1 | 18&-8 | x | x | -15 | -4 | -4 | x | x
COC(=O)C(NC(=O)CCC(=O)N[C@@H](C(=O)OC)c1ccccc1)c1ccccc1 (stereo partly specified) | -18 | i | -6 | 8 | 0 | 0 | 0 | 17
COCCn1c(SC(C(=O)Nc2cc(C)ccc2OC)c2ccccc2)nnc1-c1ccc(Cl)cc1 (stereo unspecified) | x | i | 8 | -2 | 2 | 2 | -2 | 3
COc1cccc(C2CC(C(F)(F)F)n3ncc(C(=O)Nc4c(C)n(C)n(-c5ccccc5)c4=O)c3N2)c1 (stereo unspecified) | -3 | i | -4 | x | 1 | 0 | 17 | x
COC(=O)c1cccc(NC(=O)CCSc2ccc(Cl)cc2)c1C | -10 | i | 2 | x | 7 | -3 | 0 | -3
O=C(CSc1nnc(-c2ccc(Br)cc2)o1)N1CCN(C(=O)c2ccco2)CC1 | -15 | x | 6 | x | 3 | -4 | -4 | -18
COC(=O)c1cc2c(N)c(C(=O)c3ccccc3)sc2nc1C(OC)OC | x | i | -6 | 4 | -2 | 3 | 6 | -7
COc1cc2c(cc1OC)CN(Cc1cc(OC)c(O)c(OC)c1)CC2 | x | i | -3 | -10 | -5 | -1 | -10 | 10
Cc1cc(N2CCN(C(c3ccccc3)c3ccc(Cl)cc3)CC2)n2ncnc2n1 (stereo unspecified) | -4 | i | 9 | -1 | 3 | 4 | 4 | -7
O=C(Nc1nc(-c2ccc(F)cc2)cs1)c1cccnc1 | -12 | i | 6 | -19 | 3 | -6 | -8 | x
O=S(=O)(NCCSc1ccccn1)c1ccc(Cl)cc1 | -12 | i | -2 | 6 | -2 | 2 | -6 | -3
COc1ccc(CNC(=O)C2CCN(C(=O)c3csc(Nc4ccc(C)cc4)n3)CC2)cc1 | -11 | i | 5 | 18 | 7 | -12 | 0 | -17
CCOC(=O)CSc1nc2ccccc2c(=O)n1-c1ccc(C)cn1 | -8 | i | 2 | 3 | -5 | 0 | 1 | -11
CCOC(=O)c1ccc(NC(=O)c2ccc(CO)c(C(=O)NC3CCN(C(=O)OCC)CC3)c2)cc1 | -11 | i | 4 | 3 | x | x | 4 | -3
CC(Nc1nc(-c2ccc(F)cc2)cs1)c1nc2cc(Cl)c(Cl)cc2n1CCCO (stereo unspecified) | -11 | i | x | 34 | 7 | -7 | x | 29
Cc1ccc(CNC(=O)c2cc3c(C)nc4ccccc4c3o2)cc1 | 13 | i | -5 | 43 | 6 | -28 | -4 | -11
CCCCN(C)CCNC(=O)c1ccc2c(c1)NC(=O)C(N1CCCCC1)S2 (stereo unspecified) | -10 | i | -8 | x | 0 | 3 | 3 | 1

Bioassay records deposited in PubChem BioAssay by several laboratories.
